Rce1 inhib: yeast Rce1p protease inhibitors, primary screen, biochemical, fluorescence, cell-free homogeneous; CAAX prenyl protease 2 (Saccharomyces cerevisiae (strain ATCC 204508 / S288c)), Q03530; yeast membranes, quenched prenylated peptide cleavage fluorescence; calls only; actives 0.27% (n = 290,000); AID 2563, 2010;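 active means fall in fluorescence gain of 50% or more versus controls, with final raw signal at or below 3038400; inconclusive means same 50% fall but final raw signal above 3038400; inactive means fall in fluorescence gain under 50%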;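 further: plate controls were neutral control wells for no effect and wells lacking membranes for full effect; tested at 10 µM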
eIF4H inh: human eIF4H binding inhibitors, primary screen, translation initiation inhibitor project, biochemical, uHTS, fluorescence polarization | inhibition, % at 35 µM | eIF4H fluorescence polarization binding assay | actives 0.94% (n = 290,000) | Eukaryotic translation initiation factor 4H (Homo sapiens), Q15056;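 active means 50% or more with normal probe brightness, or confirmed in later tests; inconclusive means above 50% with abnormal brightness, or retests that disagree; inactive means below 50% or failed in later tests; about a fifth of its hits are not listed in these tables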;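 further: calls also rest on retests at 20 µM and on dose response follow-up; 0% = protein and probe with vehicle and 100% = probe without protein; strong numbers were not always called active; many hits fall short of the cut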
UUG fidelity: modulators of yeast start codon fidelity, primary screen, whole organism, S. cerevisiae, single point, plate reader. S. cerevisiae UUG-firefly luciferase reporter, luminescence/redox ratio. actives 0.13% (n = 350,000). activity score, % at 18.7 µM. AID 602363, 2012;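 active means replicate mean at a twofold rise or more, about +100% in these data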;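 further: firefly luciferase made from a UUG start codon reports start codon fidelity; reporter light over untreated wells divided by growth signal over untreated wells; some hits fall short of that in this replicate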
PABP FP inh: PABP poly(A) RNA binding inhibitors, primary screen, biochemical, fluorescence polarization, uHTS; AID 2014, 2009; actives 1% (n = 290,000); inhibition, % at 35 µM;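 active means 50% or more with normal probe brightness, or confirmed in later tests; inconclusive means above 50% with abnormal brightness, or retests that disagree; inactive means below 50% or failed in later tests; about a fifth of its hits are not listed in these tables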;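 further: calls also rest on retests at 20 µM and on dose response follow-up; controls were probe without protein and protein plus probe with vehicle; some compounds called inactive have numbers as strong as hits; many hits fall short of the cut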
Target sequence (P11940 whole entry, looked up): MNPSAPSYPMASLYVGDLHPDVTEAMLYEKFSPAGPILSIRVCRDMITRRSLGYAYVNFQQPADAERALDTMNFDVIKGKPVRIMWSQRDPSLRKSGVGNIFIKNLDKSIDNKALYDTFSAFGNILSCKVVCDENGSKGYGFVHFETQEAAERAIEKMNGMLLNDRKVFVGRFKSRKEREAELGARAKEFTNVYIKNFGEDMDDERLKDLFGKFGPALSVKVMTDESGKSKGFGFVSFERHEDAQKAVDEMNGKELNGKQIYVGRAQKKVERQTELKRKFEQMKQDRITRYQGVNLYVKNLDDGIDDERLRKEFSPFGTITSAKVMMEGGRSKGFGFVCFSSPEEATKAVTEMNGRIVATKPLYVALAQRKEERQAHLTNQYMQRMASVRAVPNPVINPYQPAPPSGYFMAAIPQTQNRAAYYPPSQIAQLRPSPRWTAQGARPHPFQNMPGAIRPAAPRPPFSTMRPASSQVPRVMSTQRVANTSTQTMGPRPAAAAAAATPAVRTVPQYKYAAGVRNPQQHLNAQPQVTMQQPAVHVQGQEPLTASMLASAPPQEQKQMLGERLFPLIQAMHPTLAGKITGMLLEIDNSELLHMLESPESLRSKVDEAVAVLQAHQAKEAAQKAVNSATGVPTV
CSC inhib: cancer stem cell viability inhibitors, primary screen, luminescence; actives 1.1% (n = 300,000); cancer stem cell-like cells viability; inhibition, % at 7.5 µM;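 active means mean at 75% or more and at least half the replicates too; inconclusive means mean and replicates disagree; tested in HMLE shEcad cells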;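 further: 0% = median of negative and 100% = median of positive control wells; the first replicate is given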
HIV Env fusion: inhibitors of HIV-1 Env-driven cell-cell fusion, primary screen, HeLa-JRFL effector, CEM21 target cells, luciferase; inhibition, % at 12.3 µM; actives 1.1% (n = 360,000);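 active means mean replicate inhibition score of at least 50 and every replicate individually at or above 50; inconclusive means only one of the two criteria met; inactive means mean below 50 and not all replicates reaching 50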;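 further: 0% = plate neutral controls and 100% = maraviroc near 300 nM; one replicate is shown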
MT1-MMP act inh: blockers of MT1-MMP proenzyme processing, primary screen, HT1080 RFP-PRO-GFP cells, GFP/RFP fluorescence; Matrix metalloproteinase-14 (Homo sapiens), P50281; GFP/RFP ratio fluorescence, overnight; percent of plate control window, DMSO zero; GFP/RFP ratio change, % at 20 µM; actives 0.061% (n = 360,000);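 active means GFP/RFP ratio change of at least 30% with cell ATP level not reduced by more than half and red fluorescence within 50% of control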; further: strong numbers were not always called active
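Material: RFP-PRO-GFP reporter HT1080 cells. Dosing: single-point 20 µM compound, 1% DMSO. Controls: DMSO and RFP-L50D-GFP cell wells. Timing: cells overnight before dosing, compound overnight, 37 °C, 5% CO2. Measure: GFP/RFP fluorescence ratio.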
eIF4H inh retest: recorded beside eIF4H inh, whose call it bears; inhibition, %; compound at 20 µM; confirmation average;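 mean of two retest wells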
PABP FP inh retest: further read-out of PABP FP inh, marked with its call; inhibition, %; compound at 20 µM; confirmation repeats;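 mean of two retest wells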
MT1-MMP act inh RFP: second read-out of MT1-MMP act inh, no call of its own (marks repeat the call); RFP signal change, %; measured here: RFP expression control read;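 0 = vehicle wells; hits needed this value within 50% of zero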
Numbers without * were called inactive; i = inactive; ? = inconclusive; / = no result given.

SMILES	Rce1 inhib	eIF4H inh	UUG fidelity	PABP FP inh	CSC inhib	HIV Env fusion	MT1-MMP act inh	MT1-MMP act inh RFP	others
O=C(Nc1ccncc1)Nc1cccc(Cl)c1	i	14	-5	-15	-9	/	1	0
C/C(=C\c1ccc(C(=O)O)cc1)c1ccc2c(c1)C(C)(C)CCC2(C)C	/	/	-16	/	101*	31	-4	-13
COc1ccc(OC)c(NC(=O)c2cccc(S(=O)(=O)N(Cc3ccccc3)c3ccccc3OC)c2)c1	i	-11	/	1	5	/	-4	-4
Cc1ccc(CSc2nc3ccccc3c(=O)n2C)cc1	i	2	-18	2	0	11	-6	-19
O=C(O)C[C@H]1c2ccccc2S(=O)(=O)N1C1CCCCC1	i	/	-11	/	-30	-14	-2	4
CC(=O)Nc1ccc(/C=N/Nc2nc3ccccc3s2)cc1	i	-11	-24	-5	/	-176	1	-3
C[C@@H]1CCC(=O)N(C[C@@H](C)CC#N)CC1	i	14	-13	0	-2	-6	-4	3
Cc1ccsc1CNC1CCCCC1	i	-6	-13	-4	-14	1	-2	-2
Cc1cccc(C)c1Nc1nnc(SCC(=O)NCCCN2CCCC2=O)s1	/	/	-10	/	-8	6	0	2
CSc1sc(-c2n[nH]c(=S)n2C)c2c1C=CCC2	i	23	-18	6	-11	7	-1	-3
COc1ccc(N2C(=O)CC(N3CCC(c4nc5ccccc5[nH]4)CC3)C2=O)cc1 (stereo unspecified)	i	1	-16	-16	-3	18	10	7
Cc1ccc(NC(=O)c2cccc(OCc3c(C)noc3C)c2)cc1S(=O)(=O)Nc1ccccc1Cl	i	-3	-24	21	16	/	13	-12
Cc1oc2c(C)c3oc(=O)c(CCC(=O)NCCCN4CCCC4=O)c(C)c3cc2c1C	i	-7	4	6	-4	/	0	4
O=C(NC(Cc1ccccc1)C(=O)O)/C(=C/c1cccc([N+](=O)[O-])c1)NC(=O)c1cccc(Br)c1 (stereo unspecified)	i	0	-6	-3	5	3	0	2
COC(=O)c1ccccc1S(=O)(=O)NC(=O)c1ccccc1	i	-9	-35	0	-4	/	1	2
CCCCCCC1CC(CCc2nc(=S)[nH][nH]2)C(=O)O1 (stereo unspecified)	i	8	-9	-2	9	10	7	4
Cc1ccc(-c2cnc(C(O)c3cc(F)cc(Cl)c3)[nH]2)cc1 (stereo unspecified)	/	/	-29	/	/	-6	6	5
C/C(=N\NC(=O)C1CC1)c1ccccc1O	/	-11	-4	4	-12	-3	2	3
CCOc1ccc(-c2cc(NC(=O)c3c(F)cccc3F)c(C(=O)O)s2)cc1	i	10	0	14	9	-1	-2	-2
COc1cccc(-c2cc(C(=O)Nc3cccnc3Cl)no2)c1	i	-6	-13	14	-39	-31	1	2

Reprinted from the part before: two compounds, then new ones.
SMILES	Rce1 inhib	eIF4H inh	UUG fidelity	PABP FP inh	CSC inhib	HIV Env fusion	MT1-MMP act inh	MT1-MMP act inh RFP	others
CCOc1ccc(-c2cc(NC(=O)c3c(F)cccc3F)c(C(=O)O)s2)cc1	i	10	0	14	9	-1	-2	-2
COc1cccc(-c2cc(C(=O)Nc3cccnc3Cl)no2)c1	i	-6	-13	14	-39	-31	1	2
CCN(C[C@H]1N[C@@](C)(C(=O)OC)[C@H]2C(=O)N(C)C(=O)[C@@H]12)C(=O)Nc1ccc(C)cc1	/	/	-13	/	/	-19	3	4
O=C(O)/C=C/C(=O)N(Cc1ccc2c(c1)OCO2)C1CC(=O)N(CCc2ccccc2)C1=O (stereo unspecified)	i	-8	-4	4	8	5	-4	-1
CCOC(=O)c1csc(NC(=O)c2ccccc2)n1	i	-14	2	-5	-2	-66	-13	-14
CCn1c(COc2ccccc2)nnc1SCC(=O)c1cccc([N+](=O)[O-])c1	i	7	-12	2	-8	/	16	-4
Cc1ccc(CSCC2Nc3ccc(C(=O)N4CCN(c5cccc(C)c5)C(C)C4)cc3NC2=O)cc1 (stereo unspecified)	i	44	/	24	19	/	/	/
O=C1/C(=C/c2ccc(F)cc2)SC(=S)N1Nc1ncc(C(F)(F)F)cc1Cl	/	-1	-18	1	5	-53	2	-2
Cc1nc2nc[nH]n2c(=O)c1CC(=O)O	i	-3	-13	-4	7	/	-2	0
CC(C)CNS(=O)(=O)c1ccc(S(=O)(=O)N2CCC(N3CCCCC3)CC2)cc1	i	2	-5	0	-5	7	4	5
CC(C)(C)c1cc(C(=O)NN)n(Cc2ccc(F)cc2)n1	/	-6	/	0	9	-7	-1	1
CC(=O)c1c(C)[nH]c(C(=O)Nc2cccc(S(=O)(=O)N3CCOCC3)c2)c1C	i	-14	-5	-7	-5	-6	14	7
Cc1noc(NS(=O)(=O)c2ccc(NC(=O)COc3ccc(Cl)cc3Cl)cc2)c1C	i	4	-19	14	3	/	2	-4
CN1c2ccccc2C(=O)/C(=C\Nc2ccc(F)cc2)S1(=O)=O	i	1	-13	-8	0	8	6	2
O=C(NCc1ccc2c(c1)CCO2)Nc1cccc(C(F)(F)F)c1	i	-7	-2	4	16	19	10	0
C=CC[n+]1c(-c2ccc(Cl)cc2Cl)csc1Nc1c(C)n(C)n(-c2ccccc2)c1=O	i	-12	-3	3	-1	36	4	-27
Cc1ccc(NC2=C(Cl)C(=O)OC2OC(=O)c2ccco2)cc1C (stereo unspecified)	i	-7	-2	-6	2	15	0	-3
O=C(O)CSc1c2c(nc3cc(C(=O)Nc4ccc(F)c(Cl)c4)ccc13)CCCC2	i	5	-15	21	-8	-2	1	1
CSCCC(NC(N)=O)C(=O)Nc1ccc2ccccc2c1 (stereo unspecified)	i	-2	/	0	/	-15	-3	0
CCCCn1c(=O)n(C)c(=O)c2c3c(sc21)COC(C)(C)C3	i	-4	-9	-3	-10	/	-5	-13
CCSc1ccccc1C(=O)Nc1cccnc1	i	-1	-19	-2	-6	-12	-2	-1
Nc1nonc1C(=O)N/N=C/c1ccncc1	/	-8	/	9	-6	-1	-4	-2
COc1ccc(/C=C/C(=O)NC(=S)N2CCN(C)CC2)cc1	i	-7	/	31	-3	11	-1	6
CCOC(=O)c1cn2nc(Oc3ccccc3)ccc2n1	i	-5	-30	-2	-9	-22	-4	-2
Nc1cc(=O)[nH]c(SCC(=O)Nc2cc(S(=O)(=O)N3CCCCCC3)ccc2Cl)n1	/	/	-8	/	-13	?	4	-18
O=C(NCC(F)(F)F)Nc1cccnc1	/	4	-4	5	-5	/	1	5
O=C(NCCc1nc(-c2ccccc2Cl)no1)C1CCCCC1	i	/	-13	/	8	-18	2	-3
CCOc1ccc(NC(=O)CN(C)C(=O)c2ccccc2-n2cnnn2)cc1OCC	i	/	/	/	-9	-6	2	6
Cc1ccc(/C=C2\CCn3c2nc2cc(C(=O)O)ccc2c3=O)c(C)c1	i	-3	-15	18	-13	-4	3	6
CN(c1ccccc1)S(=O)(=O)c1ccc(NC(=O)c2ccccc2C(=O)O)cc1	i	/	/	/	-1	-13	2	1
O=C(C[C@H]1C/C=C\CC[C@@H](Cc2ccc(F)cc2)C(=O)OC[C@H]2CCCN2C1=O)NCCO	/	/	-9	/	-5	10	2	2
CCOc1ccc(N(CC(=O)N2CCc3ccccc32)S(=O)(=O)c2c(C)noc2C)cc1	i	3	-3	-6	8	12	-3	-7
COc1ccc(N(CC(=O)NCc2ccco2)S(C)(=O)=O)cc1OC	i	1	8	-2	-4	-11	-1	4
c1ccc(C(c2nnnn2Cc2ccco2)N2CCN(C3CCCC3)CC2)cc1 (stereo unspecified)	i	12	-9	13	13	-80	-7	0
O=C1c2ccccc2C(=O)N1CCc1csc(-c2ccc(F)cc2)n1	i	-7	-5	-11	1	-42	4	4
Cn1nccc1C(=O)Nc1ccn(C23CC4CC(CC(C4)C2)C3)n1	i	-1	/	11	3	/	-7	-22
CCCCn1c(SCC(=O)NC2CC(C)(C)NC(C)(C)C2)nc2cc(S(N)(=O)=O)ccc21	i	-8	-19	10	10	7	-1	3
O=CNc1cc(-c2cccc(F)c2)cn2c(-c3ccc(F)cc3)cnc12	/	/	-16	/	/	1	-2	-3
NC(=O)C1CCCN(C(=S)Nc2cccc3ccccc23)C1 (stereo unspecified)	i	-5	-18	-1	-5	4	2	0
COc1cc(CCCN2C(=S)NC[C@@H]2c2ccccc2)cc(OC)c1OC	i	-3	-22	40	-4	0	1	-2
COc1ccc(-c2c[n+]3c(n2-c2c(C)n(C)n(-c4ccccc4)c2=O)CCCCC3)cc1	i	18	/	46	-9	8	3	4
Cc1onc(-c2ccccc2Cl)c1C(=O)Nc1ccccc1C(N)=O	i	-2	-17	-11	-13	/	4	-12
Cc1ccc(-c2nn(-c3ccccc3)cc2C(=O)N2CCOCC2)cc1C	i	-1	13	-4	-14	11	1	0
O=C(c1ccc(Cl)cc1)N1CCN(C(=O)c2ccco2)CC1	i	1	-7	-5	-4	/	1	3
Cc1cc(OCC(=O)Nc2cc(S(=O)(=O)N3CCOCC3)ccc2N2CCCC2)ccc1C(C)C	i	/	/	/	12	/	-1	-10
COc1ccc(O)c(-c2cc(C(F)(F)C(F)F)nc(-c3ccccc3)n2)c1	i	1	-14	5	5	/	1	2
CSc1cccc(NC(=S)Nc2ccc(F)cc2)c1	i	0	-29	12	11	-48	-6	-5
COc1cccc(-n2cnc3sc(C)cc3c2=O)c1	i	9	-3	47	-2	15	-2	1
COc1ccc(-c2cc(C(=O)Nc3c(C)nn(Cc4ccccc4Cl)c3C)no2)cc1OC	/	-8	/	3	1	33	-4	-8
Cc1csc(C(=O)O)c1-n1cccc1	i	12	-17	0	-9	-126	3	5
CCC(C)(C)c1ccc(Oc2ccc(N)cc2)cc1	i	-10	-42	2	/	60*	-30	-21
Cn1c(N)c(C(=O)COC(=O)c2ccc([N+](=O)[O-])o2)c(=O)n(C)c1=O	i	-8	0	-4	19	26	-2	-2

The results go on:
SMILES	Rce1 inhib	eIF4H inh	UUG fidelity	PABP FP inh	CSC inhib	HIV Env fusion	MT1-MMP act inh	MT1-MMP act inh RFP	others
CCOC(=O)C1=C(O)C(=O)NC(c2ccccc2)=C(OC2CCCCC2)C1	i	-4	/	24	0	14	-5	-5
CCN1CCN(S(=O)(=O)c2c[nH]c(C(=O)OC)c2)CC1	i	0	-8	-11	-9	/	3	4
CCN(CC1CCCN(CCc2cccc(OC)c2)C1)C(=O)c1ccoc1 (stereo unspecified)	i	59	-2	5	-3	2	-3	2	eIF4H inh retest=-15;PABP FP inh retest=11
Cc1cccc(Cn2c(SCCO)nc3c2c(=O)n(C)c(=O)n3C)c1	i	-1	/	1	-13	/	-5	-7
Cc1ccc(S(=O)(=O)N2CCN(C(=O)c3ccccn3)CC2)c(C)c1	i	0	/	-6	1	-2	1	1
COc1ccccc1-c1noc2ncnc(Nc3ccccc3C)c12	i	-9	-2	0	-4	13	-5	-6
O=C(c1ccc(O)cc1)c1ccc(O)cc1O	i	43	1	35	/	-14	-5	1
COc1ccccc1NC(=O)c1ccc(Cl)c(S(=O)(=O)N2CCCCC2)c1	i	-15	-13	-6	20	18	7	-8
CCOC(=O)N/N=C/c1ccc(N(CC)CC)cc1O	i	3	/	2	/	/	5	-1
COc1cccc(C(=O)OCC(=O)NCC2CCCO2)c1 (stereo unspecified)	/	/	/	/	-13	0	-1	1

From PubChem BioAssay
